High-throughput results from PubChem BioAssay.
ClpP mod: qHTS Assay for Activators of ClpP; ATP-dependent Clp protease proteolytic subunit (Bacillus subtilis (strain 168)), P80244; purified B. subtilis ClpP, FRET peptide cleavage, 20 min; Potency, µM (top dose mostly 57.5 µM), for inactives: at the top dose activity change, negative = active; actives 1.9% (n = 340,000); AID 651965, 2013; active = well fitted falling curve with a large enough effect; inconclusive = small, poorly fitted or top-dose-only effect; inactive = no such curve, though single readings can be large or run the other way; note: potency is the fitted concentration of half-maximal effect; the source files actives as falling curves though it sought activators and does not explain the sign; nearly all actives have a fitted effect of over 65% in size; many hits overshoot -100%
Target sequence (P80244 whole entry, looked up): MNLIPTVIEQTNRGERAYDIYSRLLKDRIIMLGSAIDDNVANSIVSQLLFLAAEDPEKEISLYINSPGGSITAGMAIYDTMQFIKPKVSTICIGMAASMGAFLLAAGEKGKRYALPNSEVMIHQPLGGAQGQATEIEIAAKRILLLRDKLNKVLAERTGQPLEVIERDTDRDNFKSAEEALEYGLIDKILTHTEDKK
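ClpP 10 microg/mL final, pH 8 Tris/KCl buffer with BSA, glycerol, Tween-20; compound pinned in; FRET-FV substrate; RT 20 min; Ex320/Em430; ΔFRET vs ADEP 5.8 microM, DMSO, no enzyme.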
CtBP-E1A inh: qHTS Assay for Inhibitors of the CtBP/E1A Interaction; activity change, % (test concentration not listed); actives 0.49% (n = 340,000); AID 651724, 2012; CtBP / adenovirus E1A interaction (AlphaScreen); AlphaScreen GST-E1A/His-CtBP binding, 1536-well; stronger effect = lower value; control for the full effect not named in the record; in the data active means activity change below about -65%; inconclusive means about -30% to -65%; inactive means above about -30%; note: % is set by controls: 0 for no effect and ±100 for the full control effect; compound concentration not given in the record
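AlphaScreen with 125 nM GST-E1A and 125 nM His-CtBP (5X stocks) in Tris pH 8.0, 300 mM NaCl, BSA, Tween 20, TCEP. Compounds preincubated 2 h at 37 deg C, then glutathione donor/nickel acceptor beads added for 1 h at 37 deg C in dark.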
TRPV1 potentiator: HTS Assay for Compounds that Act as Potentiators of the Vanilloid Receptor 1. TRPV1-expressing cells, Fluo-8 calcium influx, capsaicin EC20 potentiation; host cell line not named in the record; control for the full effect not named in the record. potentiation, % at 8.33 µM. actives 0.02% (n = 320,000); active means potentiation above 80%; inconclusive means 30% to 80%; inactive means below 30%; note: 0% is about no effect
Target sequence (Q8NER1 whole entry, looked up): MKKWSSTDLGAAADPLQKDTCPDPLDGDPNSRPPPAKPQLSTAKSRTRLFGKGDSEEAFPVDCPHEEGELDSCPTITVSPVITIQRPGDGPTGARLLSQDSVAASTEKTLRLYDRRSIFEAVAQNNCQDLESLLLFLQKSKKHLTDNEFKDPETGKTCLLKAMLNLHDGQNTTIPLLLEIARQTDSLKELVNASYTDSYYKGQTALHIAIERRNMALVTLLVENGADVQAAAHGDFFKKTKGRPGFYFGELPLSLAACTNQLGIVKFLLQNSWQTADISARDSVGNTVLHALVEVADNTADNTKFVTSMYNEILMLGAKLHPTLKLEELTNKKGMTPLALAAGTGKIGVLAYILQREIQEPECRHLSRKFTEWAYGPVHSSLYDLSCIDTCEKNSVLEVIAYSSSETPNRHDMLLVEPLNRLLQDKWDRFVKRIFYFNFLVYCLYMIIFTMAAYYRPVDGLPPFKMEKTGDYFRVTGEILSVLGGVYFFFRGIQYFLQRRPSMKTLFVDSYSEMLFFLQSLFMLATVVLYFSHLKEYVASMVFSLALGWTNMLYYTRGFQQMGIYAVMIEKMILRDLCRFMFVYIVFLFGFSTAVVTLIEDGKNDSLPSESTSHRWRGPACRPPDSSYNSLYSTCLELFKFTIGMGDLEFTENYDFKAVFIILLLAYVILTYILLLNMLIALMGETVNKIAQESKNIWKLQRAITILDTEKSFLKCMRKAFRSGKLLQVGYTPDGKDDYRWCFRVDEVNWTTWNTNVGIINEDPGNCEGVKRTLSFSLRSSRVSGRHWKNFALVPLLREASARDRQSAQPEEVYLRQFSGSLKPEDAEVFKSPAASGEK
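Cells expressing TRPV1 were dye-loaded with Fluo-8 and read kinetically: 10 s baseline, 3 min after compound (agonist portion), then 2 min after EC20 capsaicin (allosteric enhancer portion). Calcium-bound dye fluorescence at 480/520 nm.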
gsp ag: qHTS for Agonist of gsp, the Etiologic Mutation Responsible for Fibrous Dysplasia/McCune-Albright Syndrome: qHTS; gsp mutant cells, cAMP HTRF, 30 min; control for the full effect not named in the record; Potency, µM (titrated, usually from 76.9 µM), inactives show at the highest dose activation (cAMP increase), actives largely listed as activators; actives 0.13% (n = 340,000); active = well fitted activation curve with a large enough effect; inconclusive = small, poorly fitted or top-dose-only effect, or another doubt; inactive = no such curve, though single readings can be large or run the other way; cell line not stated here;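 note: phosphodiesterase inhibitor Ro 20-1724 added with compounds to block cAMP breakdown; potency is the fitted concentration of half-maximal effect; nearly all actives have a fitted effect of over 60% in size; about a fifth of the inactives were tested at one dose only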
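Cells stably selected in G418 were plated at 2000/well, grown 16-24 hr, then given compounds in DMSO with the PDE inhibitor […] (300 uM solution added) for 30 min at 37C; cAMP was read by HTRF.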
Menin MLL FP FL: qHTS Assay for Inhibitors Targeting the Menin-MLL Interaction in MLL Related Leukemias: Competition With Fluorescein Labeled MLL-derived Peptide; Fluorescence polarization, fluorescein-MLL peptide displacement from menin; FP activity change, % at 61.4 µM; 290,000 tested, under 10 active; inconclusive = falling polarisation curve, or a change in total fluorescence; inactive = total fluorescence flat and polarisation flat or rising; no compound was filed as active; the % refers to the polarisation; negative = inhibition;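 note: % of control where 0% means no effect; inhibitors lower the polarisation; unlabelled MLL peptide was the positive control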
Sfp inh: qHTS Assay for Inhibitors of Bacillus subtilis Sfp phosphopantetheinyl transferase (PPTase) | 4'-phosphopantetheinyl transferase ffp (Bacillus subtilis), Q9F4F7 | Biochemical Sfp PPTase activity, qHTS | Potency, µM, without a hit: max response, negative = inhibition, actives largely listed as inhibitors | actives 3.5% (n = 310,000) | AID 1490, 2009; active = well fitted inhibition curve with a large enough effect; inconclusive = small, poorly fitted or top-dose-only effect, or another doubt; inactive = no such curve, though single readings can be large or run the other way;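 note: the enzyme is Sfp with the accession as filed and its product quenches rhodamine fluorescence; potency is the fitted concentration of half-maximal effect; 0% = enzyme reaction without inhibitor and -100% = no enzyme wells; top concentration of the series not given in the record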
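Fluorescence-quenching assay with 15 nM Sfp, 5 uM rhodamine-CoA and 12.5 uM BHQ-2-labelled ybbR peptide in pH 7.6 Hepes/MgCl2 buffer. Enzyme was pre-incubated with compound for 15 min at room temperature. Rate was taken from the 30-min fluorescence change (525/598 nm).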
gsp antag: qHTS for Antagonists of gsp, the Etiologic Mutation Responsible for Fibrous Dysplasia/McCune-Albright Syndrome: qHTS. gsp-mutant cells, cAMP HTRF, 30 min; control for the full effect not named in the record. Potency, µM (doses to about 76.9 µM), for the others: at the highest dose activity change, negative = inhibition, hits mostly inhibitors. actives 0.4% (n = 340,000). AID 624288, 2012; active = falling curve of any shape with a large fitted effect; inconclusive = falling curve, mostly with a smaller effect; inactive = flat or rising curve; cell line not stated here;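 note: intracellular cAMP measured with PDE inhibitor Ro 20-1724 present during compound exposure; potency is the fitted concentration of half-maximal effect; % is set by controls: 0 for no effect and ±100 for the full control effect; nearly all actives have a fitted effect of over 65% in size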
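Cells in G418 medium, seeded 16-24 h, 37C; buffer exchange to DPBS + 1 mM CaCl2, 0.5 mM MgCl2, 0.05% BSA; cpds in DMSO + […] (300 uM stock), 30 min 37C; HTRF cAMP detection.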
Numbers without * were called inactive; [ ] = remark or other dose.

What do the screens show for `COc1ccc(CCC(=O)NCCCNC(=O)CCc2ccc(OC)cc2)cc1`?
ClpP mod: 0.8%; CtBP-E1A inh: 4.9; TRPV1 potentiator: -7.6; gsp ag: -2.6%; Menin MLL FP FL: 3.8; Sfp inh: 8.1%; gsp antag: 7.0%

How did O=C1CC(c2ccccc2)CC(=O)C1Sc1ccc(Cl)cc1 (stereo not drawn) do in these assays?
ClpP mod: -0.5%; CtBP-E1A inh: 8.7; TRPV1 potentiator: 1.5; gsp ag: -22.0%; Menin MLL FP FL: 2.4; Sfp inh: -6.9%; gsp antag: 0.4%

Results for O=C(COC(=O)/C=C/c1ccc(S(=O)(=O)N2CCOCC2)cc1)Nc1ccccc1F ?
ClpP mod: -2.6%; CtBP-E1A inh: 0.8; gsp ag: 11.1%; gsp antag: -7.7%

How did COc1ccc(NS(=O)(=O)c2cc(-c3cnc(C4CC4)o3)ccc2C)cc1 do in these assays?
ClpP mod: 2.4%; TRPV1 potentiator: -5.8; gsp ag: -18.5%; Sfp inh: 8.6%; gsp antag: 5.5%

How did Cc1ccc(-c2csc3nc(C)n(N)c(=O)c23)o1 do in these assays?
ClpP mod: -9.0%; CtBP-E1A inh: -10.3; TRPV1 potentiator: -12.8; gsp ag: -24.3%; Menin MLL FP FL: -0.7; Sfp inh: -7.4%; gsp antag: 11.0%

Results for COC(=O)/C(=C/c1ccc(OC)cc1)NC(=O)c1ccco1 ?
ClpP mod: 0.2%; CtBP-E1A inh: -6.3; TRPV1 potentiator: -16.0; gsp ag: inconclusive; Menin MLL FP FL: 1.1; Sfp inh: 4.3%; gsp antag: 0.9%

What do the screens show for `CC(=O)c1ccc(OCc2cc(C(=O)N3CCOCC3)no2)cc1`?
ClpP mod: 2.3%; CtBP-E1A inh: 9.4; TRPV1 potentiator: 25.4; gsp ag: -0.6%; Menin MLL FP FL: -2.2; Sfp inh: 14.0%; gsp antag: 2.6%

What do the screens show for `CN(C)c1c([N+](=O)[O-])cc(N2C(=O)C=CC2=O)cc1[N+](=O)[O-]`?
ClpP mod: -13.3%; CtBP-E1A inh: 2.0; gsp ag: 10.4%[15.4 µM]; gsp antag: 3.8%

How did O=C(Nc1cc(Sc2nc3ccccc3s2)cc([N+](=O)[O-])c1)c1ccccc1F do in these assays?
ClpP mod: -0.2%; CtBP-E1A inh: -21.1; TRPV1 potentiator: 26.5; gsp ag: -16.2%; Menin MLL FP FL: 2.8; Sfp inh: 17.7%; gsp antag: 16.0%

What do the screens show for `CC(=O)c1cccc(S(=O)(=O)NC2CCSc3ccccc32)c1` (stereo not drawn)?
CtBP-E1A inh: 0.1; TRPV1 potentiator: 7.8; gsp ag: -3.1%[15.4 µM]; Menin MLL FP FL: -0.1; Sfp inh: 6.3%; gsp antag: -7.6%

Results for CC(C)C(c1nnnn1C1CCCCC1)N1CCc2ccccc2C1 (stereo not drawn) ?
ClpP mod: 0.1%; CtBP-E1A inh: 6.2; TRPV1 potentiator: -2.3; gsp ag: -62.6%[inhibitor]; Menin MLL FP FL: -9.8; Sfp inh: -16.4%; gsp antag: -3.6%

Results for CCOC(=O)[C@H]1[C@H]2COc3ccccc3[C@@H]2N2C(=O)CN(Cc3ccccc3)C(=O)[C@@]12C ?
ClpP mod: -2.2%; CtBP-E1A inh: 7.8; gsp ag: -21.8%; gsp antag: 10.4%

What do the screens show for `COc1cccc(C(c2sc3ncnn3c2O)N2CCN(C(=O)c3ccco3)CC2)c1` (stereo not drawn)?
ClpP mod: -2.0%; CtBP-E1A inh: -1.3; TRPV1 potentiator: -6.8; gsp ag: -30.0%; Menin MLL FP FL: 4.6; Sfp inh: 15.9%; gsp antag: 2.6%

What do the screens show for `CC(C)CCSc1nc2[nH]ncc2c(=O)[nH]1`?
ClpP mod: 0.5%; CtBP-E1A inh: 3.3; TRPV1 potentiator: 4.9; gsp ag: 11.6%; Menin MLL FP FL: 0.0; Sfp inh: 14.0%; gsp antag: 15.4%

Results for COC(=O)C1CCN(Cc2cn(Cc3ccccc3)nc2-c2cc3ccccc3o2)CC1 ?
ClpP mod: -6.0%; CtBP-E1A inh: -1.1; TRPV1 potentiator: 7.0; gsp ag: -7.8%; Menin MLL FP FL: 0.5; Sfp inh: -5.1%; gsp antag: -1.5%

2 neighbouring entries already listed, quoted:
What do the screens show for `CC(C)CCSc1nc2[nH]ncc2c(=O)[nH]1`?
ClpP mod: 0.5%; CtBP-E1A inh: 3.3; TRPV1 potentiator: 4.9; gsp ag: 11.6%; Menin MLL FP FL: 0.0; Sfp inh: 14.0%; gsp antag: 15.4%

Results for COC(=O)C1CCN(Cc2cn(Cc3ccccc3)nc2-c2cc3ccccc3o2)CC1 ?
ClpP mod: -6.0%; CtBP-E1A inh: -1.1; TRPV1 potentiator: 7.0; gsp ag: -7.8%; Menin MLL FP FL: 0.5; Sfp inh: -5.1%; gsp antag: -1.5%

Other records follow.
Results for Cc1cccc(N(CC(=O)NCCc2ccccc2)C(=O)CCC(=O)Nc2ccccn2)c1C ?
ClpP mod: 0.6%; CtBP-E1A inh: -19.0; TRPV1 potentiator: 0.2; gsp ag: 4.5%[15.4 µM]; Menin MLL FP FL: -1.6; Sfp inh: 18.9%; gsp antag: 2.4%

How did O=C(O)CC(NC(=O)/C(=C/c1ccccc1)NC(=O)c1ccccc1)c1ccccc1 (stereo not drawn) do in these assays?
CtBP-E1A inh: -3.3; TRPV1 potentiator: -26.7; gsp ag: 17.1%; Sfp inh: 21.3%; gsp antag: 5.1%

How did O=C(O)c1cc(C(=O)C2CC2)c[nH]1 do in these assays?
CtBP-E1A inh: -1.4; TRPV1 potentiator: -12.4; gsp ag: 11.6%[15.4 µM]; Menin MLL FP FL: -2.2; Sfp inh: 8.7%; gsp antag: -3.0%

What do the screens show for `COC(=O)/C=C/c1ccc2c(c1)S(=O)(=O)N(Cc1ccc(OC)cc1)[C@H]2CC(=O)OC`?
ClpP mod: -4.9%; gsp ag: -2.8%; gsp antag: -10.3%

What do the screens show for `Cc1ccc([C@H]2C[C@@H](O)[C@H](n3cc(C4CC4)nn3)CN2CC2CCCCC2)cc1`?
ClpP mod: 0.4%; CtBP-E1A inh: 3.3; gsp ag: inconclusive

What do the screens show for `CCC(=O)Nc1ccc(NC(=O)c2cc3ccccc3o2)c(OC)c1`?
CtBP-E1A inh: -14.3; TRPV1 potentiator: 1.1; gsp ag: -4.6%; Menin MLL FP FL: -4.5; Sfp inh: 2.4%; gsp antag: -28.0%

Results for COc1ccc(Cl)cc1NC(=S)N1CCN(C(=O)c2ccco2)CC1 ?
ClpP mod: -0.1%; CtBP-E1A inh: -3.0; TRPV1 potentiator: 18.3; gsp ag: inconclusive; Menin MLL FP FL: -0.2; Sfp inh: 2.1%; gsp antag: 0.2%

Results for COC(=O)CSc1nc(NCc2ccccc2)nc(N(C)C)n1 ?
CtBP-E1A inh: 4.5; TRPV1 potentiator: 25.3; gsp ag: -0.9%; Menin MLL FP FL: 1.2; Sfp inh: 16.6%; gsp antag: -11.3%

How did O=C(c1ccc([N+](=O)[O-])cc1)N1CCOC12CCN(c1ncc(C(F)(F)F)cc1Cl)CC2 do in these assays?
ClpP mod: 1.7%; CtBP-E1A inh: 1.5; TRPV1 potentiator: 23.6; gsp ag: 3.4%; Menin MLL FP FL: 3.7; Sfp inh: -1.9%; gsp antag: -4.0%

What do the screens show for `CCCNC(=O)COC(=O)c1ccc(S(=O)(=O)N2CCCC2)cc1`?
CtBP-E1A inh: 4.8; TRPV1 potentiator: 3.8; gsp ag: -6.0%; Menin MLL FP FL: 1.6; Sfp inh: 11.2%; gsp antag: -7.1%

Results for COc1ccc(NS(=O)(=O)c2cccc(C(=O)NC3CCN(Cc4ccccc4)CC3)c2)cc1 ?
ClpP mod: 0.5%; CtBP-E1A inh: 0.2; TRPV1 potentiator: -6.8; gsp ag: -29.6%; Sfp inh: -0.6%; gsp antag: -3.4%

How did O=C(NC1CCN(Cc2ccccc2)C1)c1cc(COc2ccc(F)cc2F)on1 (stereo not drawn) do in these assays?
ClpP mod: -1.8%; CtBP-E1A inh: -4.8; TRPV1 potentiator: 2.9; gsp ag: 17.9%; Menin MLL FP FL: inconclusive; Sfp inh: inconclusive; gsp antag: 5.5%

How did CCCCOc1ccccc1C(=O)NNC(=S)NC(=O)c1ccccc1[N+](=O)[O-] do in these assays?
CtBP-E1A inh: -22.4; TRPV1 potentiator: 4.4; gsp ag: -3.5%; Menin MLL FP FL: -0.6; Sfp inh: 30.6%[activator]; gsp antag: -6.0%

Results for COc1ccc(C)cc1S(=O)(=O)Nc1ccc(F)cc1 ?
ClpP mod: -1.9%; CtBP-E1A inh: -1.8; TRPV1 potentiator: -4.2; gsp ag: -35.1%; Menin MLL FP FL: -1.9; Sfp inh: 19.4%; gsp antag: -14.0%

What do the screens show for `CCCc1c(O)nc(SCCN(CC)CC)[nH]c1=O`?
ClpP mod: -2.5%; CtBP-E1A inh: 4.7; TRPV1 potentiator: -5.7; gsp ag: 8.4%; Menin MLL FP FL: 3.1; Sfp inh: -17.4%; gsp antag: 13.1%

How did COc1cc(C(=S)N2CCOCC2)cc(OC)c1OC(=O)Cc1ccc(F)cc1 do in these assays?
ClpP mod: -2.9%; CtBP-E1A inh: 1.5; TRPV1 potentiator: -3.2; gsp ag: 18.1%[15.4 µM]; Menin MLL FP FL: 3.0; Sfp inh: 44.7µM*; gsp antag: -17.2%

What do the screens show for `CC(NC(=O)COC(=O)c1ccc([N+](=O)[O-])o1)c1ccccc1` (stereo not drawn)?
CtBP-E1A inh: 0.6; gsp ag: 6.4%; gsp antag: -3.6%
